Screening results (PubChem)
Mtb bLac sens: beta-lactam sensitization of Mtb H37Rv. M. tuberculosis H37Rv growth with meropenem, percent inhibition; hits of this screen are not shown here. inhibition, % at 25 µM. 330,000 compounds, 0.27% hits. AID 434955;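 active = about 74% or more and at least 40 points above the plate without the antibiotic, then above 30% in a dose series; inconclusive = first-round hits that could not be retested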;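 note: growth measured after seven days incubation then overnight dye step; 0% = bacteria only wells and 100% = bacteria with antibiotic; twin plates without the antibiotic show which effects depend on it; some results filed as inactive read as strong as hits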
Arbovirus inh: arbovirus infection inhibition. inhibition, % at 10 µM. AID 1251. arbovirus infection cell-based antiviral screen. 200,000 compounds, 0.37% hits;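 active = inhibition from about 30%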;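 note: bluetongue infection of BSR cells; cell survival read as ATP light after 72 h; 0% = infected wells without compound and 100% = uninfected wells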
RecA splice inh: blocks M. tuberculosis RecA intein splicing; AID 2221; inhibition, %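 (about 9 µM by stock and volumes)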; P9WHJ3; 290,000 compounds, 0.75% hits; cell-free RecA intein splicing, fluorescence; in the data active = inhibition above about 30%; inconclusive = no clear call, values can overlap the other calls;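 note: 0% = vehicle wells and 100% = reference inhibitor control wells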
Target sequence (P9WHJ3 whole entry, looked up, canonical isoform): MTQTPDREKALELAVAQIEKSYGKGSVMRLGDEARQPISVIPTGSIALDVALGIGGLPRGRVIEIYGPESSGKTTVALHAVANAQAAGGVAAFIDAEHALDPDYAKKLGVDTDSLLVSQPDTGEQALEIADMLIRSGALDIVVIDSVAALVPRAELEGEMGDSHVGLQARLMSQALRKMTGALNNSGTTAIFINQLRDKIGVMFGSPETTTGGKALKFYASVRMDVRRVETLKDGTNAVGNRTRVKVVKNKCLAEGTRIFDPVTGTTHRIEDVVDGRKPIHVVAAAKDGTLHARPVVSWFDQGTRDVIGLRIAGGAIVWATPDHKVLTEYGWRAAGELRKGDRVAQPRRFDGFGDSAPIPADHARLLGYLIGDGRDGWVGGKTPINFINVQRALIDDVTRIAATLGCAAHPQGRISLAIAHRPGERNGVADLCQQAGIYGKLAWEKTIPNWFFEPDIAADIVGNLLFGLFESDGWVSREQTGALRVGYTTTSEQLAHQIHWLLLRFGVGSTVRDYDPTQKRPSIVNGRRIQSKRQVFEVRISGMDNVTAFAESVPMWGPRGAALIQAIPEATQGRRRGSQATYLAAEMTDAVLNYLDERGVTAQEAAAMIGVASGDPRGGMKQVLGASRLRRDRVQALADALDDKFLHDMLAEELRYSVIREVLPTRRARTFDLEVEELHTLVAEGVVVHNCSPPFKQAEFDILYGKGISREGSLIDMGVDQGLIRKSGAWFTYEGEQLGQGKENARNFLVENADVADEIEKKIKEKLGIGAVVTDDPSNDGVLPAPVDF
YopH PTP inh: inhibitors of Yersinia enterocolitica YopH tyrosine phosphatase. fluorescence Ex485/Em525. inhibition, %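 (about 10 µM by stock and volumes)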. 140,000 compounds, 0.16% hits;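 active = inhibition of 50% or more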;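 note: controls were vehicle for no effect and minimum signal wells for full effect; inactives centre near -20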
Mtb growth: M. tuberculosis H37Rv growth inhibitors, H37Rv strain (AID 1626); 220,000 compounds, 0.95% hits; inhibition, % at 10 µM, or IC50 in µM where a hit was titrated; M. tuberculosis H37Rv growth inhibition; higher % means a stronger effect;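 active = confirmed in a dose series; inconclusive = inhibition above 80% but not taken into the dose series; inactive = below 80% or under 30% at every dose of the series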;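 note: bacteria incubated seven days before Alamar blue readout; 0% = bacteria only wells and 100% = bacteria with antibiotic wells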
Arbovirus inh repeat: second read-out of Arbovirus inh, no call of its own (marks repeat the call); inhibition, %; measured here: 10K subset replicate screen; many hits read low in the repeat;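 first of two repeat runs on a subset; 0% = infected and 100% = uninfected wells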
* marks the source's active call; other numbers are inactive results; ? = inconclusive; / = not tested or not shown. Some of the compounds tested. The share of hits here may be higher or lower than overall.

SMILES	Mtb bLac sens	Arbovirus inh	RecA splice inh	YopH PTP inh	Mtb growth	others
O=C(NC1CCCCC1)C1CCN(c2ncccn2)CC1	-3.3	/	-0.6	/	/
NC(=O)c1ccc(NC(=O)CSc2nnc(-c3ccccn3)n2N)cc1	-7.3	8.1	-5.0	/	-13.2%
CN(C)S(=O)(=O)c1cccc(-c2nn(-c3ccccc3)cc2/C=C2\SC(=S)N(CC(=O)O)C2=O)c1	1.4	/	5.4	/	-6.1%
Cc1ccc(NC(=O)COS(=O)c2ccc(C)cc2)cc1 (configuration not stated)	-2.8	-2.4	0.4	-5.6	19.7%
O=S(=O)(Nc1ccc(Cl)cn1)c1cnc(Cl)c(Br)c1	-1.5	/	-4.2	/	3.2%
Cn1c(/C=C/N(Cc2ccccc2)c2ccccc2)c([N+](=O)[O-])c(=O)n(C)c1=O	-4.3	3.7	-2.5	/	5.1%
COc1cccc2cc(C(=O)N3CCc4ccccc43)c(=O)oc12	3.3	-0.1	-2.0	3.2	0.4%
COc1ccc(C2C(C(N)=O)=C(C)Nc3nc(-c4ccccc4)nn32)cc1OC (configuration not stated)	1.8	0.8	-1.7	-37.4	-1.8%	Arbovirus inh repeat=1.2
COc1ccc2[nH]c(C(=O)O)c(NC(=O)c3cc(OC)c(OC)c(OC)c3)c2c1	1.3	/	-1.5	/	/
COc1cc(CNC2CCCC2)c(Br)cc1OCc1ccccc1	3.0	-15.1	-0.3	/	7.7%
COC(=O)c1c(-c2ccc(C)cc2)csc1NC(=O)C1CC=CCC1C(=O)O (configuration not stated)	-9.5	18.9	3.4	-8.0	1.7%
N#Cc1c(SCC(=O)N2CCOCC2)nsc1SCC(=O)N1CCOCC1	-8.0	6.5	3.2	-24.0	0.9%
O=C(Nc1cccc(C(F)(F)F)c1)C1CCN(S(=O)(=O)c2cccnc2)CC1	-6.1	/	-0.9	/	/
CCOC(=O)c1cn(Cc2ccc(C)cc2)nn1	2.3	6.5	-2.4	-2.6	4.1%
CCCCOc1ccc(-c2n[nH]c(=S)n2Cc2ccccc2)cc1	-4.3	/	6.8	/	/
O=C(NC(=S)Nc1ccc(NC(=O)c2ccco2)cc1)c1ccccc1	-0.8	-22.1	2.2	-23.2	5.1%
COCCCNS(=O)(=O)c1cccc(S(=O)(=O)c2cccc(S(=O)(=O)NCCCOC)c2)c1	-2.6	/	0.5	/	/
Cc1ccccc1N1CCN(C(=S)c2ccc([N+](=O)[O-])cc2)CC1	-9.9	5.8	1.0	-27.0	0.0%
O=C(CNS(=O)(=O)c1ccccc1)N1CCN(C(=O)c2ccco2)CC1	-4.2	/	0.1	/	/
CC(Sc1nnnn1C)C(=O)Nc1ccccc1-c1ccccc1 (configuration not stated)	3.8	-2.6	0.5	-41.4	7.5%
COc1ccc(CNCc2ccccc2[N+](=O)[O-])cc1OC	1.2	/	-0.6	/	/
CN(C)CC/C=C1\c2cc(Cl)ccc2Sc2cc(F)c(F)cc21	79.9	/	6.5	/	/
CCOc1ccc(N(CC(=O)NC2CCCC2)C(=O)CCC(=O)Nc2nccs2)cc1	4.1	/	0.7	/	/
COc1ccc2c(c1)c1nc(SCC(C)C)n(CCO)c(=O)c1n2C	5.1	-14.4	-0.2	-46.3	1.1%
COC(=O)c1cn(C(=O)c2ccccc2)c2ccccc12	-1.9	-0.3	3.1	/	-0.7%
Cc1cc2cc(CNC(=O)c3ccc(S(=O)(=O)N4CCCC4)cc3)ccc2n1C	1.0	0.7	4.6	-30.8	-2.3%
c1ccc(CCn2nnnc2C(c2cccs2)N2CCOCC2)cc1 (configuration not stated)	-10.2	-2.7	3.2	/	-1.7%
Cc1ccc(N=C2NC(=O)CS2)cc1	-3.8	2.0	4.6	12.0	-7.5%
Cc1cccc(C)c1NC(=O)C1c2cccc[n+]2CC(=O)N1Cc1ccc2c(c1)OCO2 (configuration not stated)	6.0	3.7	0.7	/	31.9%
O=S(=O)(Nc1cccnc1)c1ccc(Br)c2ccccc12	-5.5	/	0.2	/	/
CC(C)COP(=O)(c1ccc(N(C)C)cc1)C(O)c1ccccc1F (configuration not stated)	-15.5	-5.5	-1.0	-33.8	-5.7%
Cc1ccc(C)c(C2=CSC3=NS(=O)(=O)CCN23)c1	-0.1	2.6	/	-14.1	-11.2%
Cc1nc2sc(C(c3ccccc3)N3CCN(C)CC3)c(O)n2n1 (configuration not stated)	3.2	0.9	1.2	/	-7.5%
COc1ccc(Cl)cc1C(=O)N1CCN(c2ccccn2)CC1	-7.0	3.5	1.2	-12.0	0.8%
Oc1ccc(C[C@H]2CNCCN2CC2(c3ccccc3)CC2)cc1	-5.0	/	-1.7	/	/
COc1cccc(NC(=O)COC(=O)c2ccccc2SCC(=O)N2CCCC2)c1	1.9	/	1.8	/	/
Cc1cc(OCCOc2cccc3cccnc23)cc(C)c1Cl	-2.8	8.9	0.5	-12.5	3.8%
Cc1ccc(CNC(=O)C2CC3Cn4c(nc5cc6ccccc6cc54)C3N2C)o1 (configuration not stated)	2.5	/	-2.9	/	-8.1%
CC1Cc2ccccc2N1C(=O)C1CC(=O)N(c2ccccc2)C1 (configuration not stated)	1.8	/	3.0	/	/
CCCNC(=O)c1ccc2c(c1)CCN2S(C)(=O)=O	-11.3	1.0	1.3	/	-4.6%
O=C(c1cc2cc(Br)ccc2oc1=O)N1CCCC1	-2.8	1.8	-1.0	-26.4	0.2%
Cc1cccn2c(CN3CCCN(C=O)CC3)c(C(=O)N(C)CCc3ccccc3)nc12	-3.2	3.5	-1.7	/	0.5%
COc1cccc(NC(=O)c2cn(C)c(=O)c3cc(OC)c(OC)cc23)c1	34.6	10.1	3.7	-24.2	-9.1%
CCOC(=O)c1c(C=O)c2ccccc2n1CC	8.3	-2.4	2.2	/	5.5%
Cc1cc(C)cc(-n2cc(C(=O)O)c(=O)cc2C)c1	14.9	-3.5	-0.3	/	/
Cc1cc(C)n(-c2nc3c(c(=O)[nH]c(=O)n3C)n2C(C)C)n1	-5.5	-5.7	-3.3	-22.8	-7.3%
Cc1nn(C(=O)c2c([N+](=O)[O-])cnn2C)c(C)c1Cl	-4.5	0.9	-1.3	-1.9	-1.5%
Clc1ccc(Nc2c3c(nc4ncnn24)CCC3)cc1	-6.7	/	3.9	/	-3.8%
CCCC(=O)Nc1nc(C)c(-c2csc(Nc3ccccc3OC)n2)s1	24.0	-11.9	4.2	-44.4	9.7%
CCOC(=O)C1=C(C)N=c2s/c(=C\c3ccc(OCC(=O)O)cc3)c(=O)n2C1c1ccccc1OC (configuration not stated)	2.8	/	-0.2	/	/
Cc1ccc2c(c1)nnn2C1CCN(C(=O)C23CC4CC(CC(C4)C2)C3)CC1	-0.5	-8.0	1.7	-5.3	-4.2%
CC(C)C(=O)NN(C(=O)C(C)C)c1nc2ccccc2s1	-4.2	/	-1.9	/	-2.9%
CN(CC(=O)Nc1ccc(Cl)cc1)c1ccc(S(=O)(=O)N2CCCCC2)cc1[N+](=O)[O-]	-3.4	16.0	2.2	-16.7	3.8%
N/C(=N\S(=O)(=O)c1cccs1)c1ccccc1	2.2	9.0	0.9	-7.4	2.4%
O=C1CSC(=S)N1N=C1CCCCCC1	-0.2	0.5	/	-18.8	-6.3%
COC(=O)C1CC(Cl)CN1c1ncc(C(F)(F)F)cc1Cl (configuration not stated)	-3.3	7.4	-1.1	/	1.9%
Cn1c(=O)n(CCc2ccccc2)c2ccccc21	-2.0	/	-0.1	/	/
COCc1ccc([C@@H]2C[C@H]3CN(Cc4cccc(Cl)c4)C(=O)[C@]34CCCN24)o1	-3.3	4.1	1.9	/	-6.8%
CN1CCN(/C=N/c2c(C#N)cnn2-c2ccccc2)CC1	-6.3	5.0	/	-3.9	-1.5%
COc1cc(NC(=S)N2CCN(c3ccccn3)CC2)cc(OC)c1	0.1	2.9	-1.9	-28.3	-1.2%

The list goes on:
SMILES	Mtb bLac sens	Arbovirus inh	RecA splice inh	YopH PTP inh	Mtb growth	others
CN(C)S(=O)(=O)c1cccc(COc2ncnc3c(Cl)cc(Cl)cc23)c1	9.4	/	0.5	/	/
COC(=O)CSc1snnc1-c1ccc(Cl)c(Cl)c1	95.4	7.7	4.8	-34.9	8.2%
CCn1c(SCC(=O)Nc2ccc(C(C)=O)cc2)nnc1C1CC1	2.9	/	0.9	/	/
CCOC(=O)CSc1nc(N)c(C#N)c(-c2ccc(OCC)cc2)c1C#N	86.8	1.3	-1.2	-22.1	0.472µM*
COC(=O)c1cc(C)sc1NC(=O)C1CC(=O)NN1Cc1ccccc1 (configuration not stated)	2.0	-8.5	-1.3	-11.5	11.4%
Cc1nn(Cc2ccccc2)c(C)c1NC(=O)CSc1nnc(-c2cc(Cl)ccc2O)n1C	7.3	10.4	4.6	-31.1	-8.7%
CC12CCC(=O)N1C(C(=O)OCC(=O)Nc1sccc1C#N)CS2 (configuration not stated)	-5.7	2.7	2.0	-27.0	-3.7%
CCC/C(O)=C1\C(=O)CC(C)(C)CC1=NCc1ccccc1	?	/	-1.6	/	8.8%
Cc1nc2ccccc2c(=O)n1/N=C/c1ccc(N(C)C)cc1	2.0	9.5	3.5	-26.4	-3.3%
Cc1cccc(NS(=O)(=O)c2cccc3nsnc23)c1	5.3	1.2	1.2	-17.9	-2.0%
CCNc1c([N+](=O)[O-])c(=O)oc2ccccc12	-1.7	12.4	0.5	/	-7.9%
CSc1cccc(NC(=O)c2c(Cl)cnn2C)c1	-2.6	-5.1	2.1	-2.2	0.3%
CN1CCN(c2ccc(S(=O)(=O)N3CCOCC3)cc2)CC1	-3.2	/	-0.7	/	/
O=C(CCCOc1cccc(Br)c1)NCCOc1ccccc1	6.8	/	6.7	/	/
NC(Cc1ccccc1)c1nc(-c2ccccc2)no1 (configuration not stated)	5.0	/	-16.2	/	-0.4%

As a short view, part of the list above.
SMILES	Mtb bLac sens	Arbovirus inh	RecA splice inh	YopH PTP inh	Mtb growth	others
CCC/C(O)=C1\C(=O)CC(C)(C)CC1=NCc1ccccc1	?	/	-1.6	/	8.8%
Cc1nc2ccccc2c(=O)n1/N=C/c1ccc(N(C)C)cc1	2.0	9.5	3.5	-26.4	-3.3%
Cc1cccc(NS(=O)(=O)c2cccc3nsnc23)c1	5.3	1.2	1.2	-17.9	-2.0%

By substructure: those above with a CF3 group.
SMILES	Mtb bLac sens	Arbovirus inh	RecA splice inh	YopH PTP inh	Mtb growth	others
O=C(Nc1cccc(C(F)(F)F)c1)C1CCN(S(=O)(=O)c2cccnc2)CC1	-6.1	/	-0.9	/	/
COC(=O)C1CC(Cl)CN1c1ncc(C(F)(F)F)cc1Cl (configuration not stated)	-3.3	7.4	-1.1	/	1.9%

Following part.
SMILES	Mtb bLac sens	Arbovirus inh	RecA splice inh	YopH PTP inh	Mtb growth	others
Cc1c(C(=O)O)cccc1-n1c(C)cc(/C=C(/C#N)C(=O)NCc2ccccc2)c1C	0.2	3.3	-0.5	/	0.9%
O=C(O)c1ccc(-c2ccc(O)c(F)c2)cc1	0.2	0.3	0.7	-28.9	-1.7%	Arbovirus inh repeat=2.9
Cc1ccc(CNC(=O)CCS(=O)(=O)c2cccc3nonc23)cc1	4.7	5.8	3.8	-1.2	6.1%	Arbovirus inh repeat=0.9
Cn1c(=O)c2c(nc(CN3CCN(CCO)CC3)n2Cc2ccccc2Cl)n(C)c1=O	-0.3	-10.7	0.4	/	/	Arbovirus inh repeat=-2.0
CCOC(=O)/C(C#N)=C/N1CCOCC1	-0.6	/	4.2	/	-4.0%
c1ccc2nc3c(nc2c1)[nH]c1ccccc13	-3.2	3.8	-2.3	-19.5	-2.5%
Cc1ccc(S(=O)(=O)NCc2cccnc2)cc1C	-13.6	/	-0.3	/	/
N#Cc1ccc(C(=O)NNC(=O)c2ccncc2)cc1	-9.9	/	3.6	/	/
O=C(NCCN1CCCCC1)Nc1cccc(Cl)c1Cl	-0.5	/	0.0	/	/
CC1CCN(C(=O)c2ccc(NC(=O)C3CCCO3)cc2)CC1 (configuration not stated)	-3.6	-5.0	-2.0	11.8	0.2%	Arbovirus inh repeat=0.1
Clc1ccccc1C1=Nn2c(nnc2-c2ccco2)SC1	-5.2	/	0.1	/	-0.5%
CCC(=O)NC(=S)Nc1ccc(NC(=O)c2ccco2)cc1	56.1	-2.4	-2.2	/	41.6%
CCN1C(=O)C(O)(CC(=O)c2c(C)coc2C)c2ccccc21 (configuration not stated)	-2.8	-4.1	-5.9	/	-7.1%
CCOC(=O)CC(=O)Nc1ccc(C(=O)OCC)cc1	97.3	4.5	1.6	-27.3	10µM*	Arbovirus inh repeat=1.3
COc1cccc(CN2CC(C(=O)N3CCCO3)CCC2=O)c1 (configuration not stated)	2.3	/	-0.5	/	/
CC(C)c1nnc(NC(=O)C2CCCN(C(=O)Nc3ccc(F)cc3)C2)s1 (configuration not stated)	4.3	/	-1.6	/	/
CCN1C(=O)CSc2ccc(C(=O)NCc3ccccc3OC)cc21	-1.4	2.2	1.7	-18.9	-6.5%
